MbtI inh = MbtI salicylate synthase inhibition | P9WFX0 | purified MbtI enzyme, fluorescence intensity read-out | inhibition, %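 (about 17 µg/mL by stock and volumes)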 | hit rate 0.89% among 100,000;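 active = above 50% in both replicates, above 80% if mildly self-fluorescent; inactive = the rest, strongly fluorescent compounds included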;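 also: 0% = mean of negative and 100% = mean of positive controls; one replicate is shown; some compounds called inactive have numbers as strong as hits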
Target sequence (P9WFX0 whole entry, looked up): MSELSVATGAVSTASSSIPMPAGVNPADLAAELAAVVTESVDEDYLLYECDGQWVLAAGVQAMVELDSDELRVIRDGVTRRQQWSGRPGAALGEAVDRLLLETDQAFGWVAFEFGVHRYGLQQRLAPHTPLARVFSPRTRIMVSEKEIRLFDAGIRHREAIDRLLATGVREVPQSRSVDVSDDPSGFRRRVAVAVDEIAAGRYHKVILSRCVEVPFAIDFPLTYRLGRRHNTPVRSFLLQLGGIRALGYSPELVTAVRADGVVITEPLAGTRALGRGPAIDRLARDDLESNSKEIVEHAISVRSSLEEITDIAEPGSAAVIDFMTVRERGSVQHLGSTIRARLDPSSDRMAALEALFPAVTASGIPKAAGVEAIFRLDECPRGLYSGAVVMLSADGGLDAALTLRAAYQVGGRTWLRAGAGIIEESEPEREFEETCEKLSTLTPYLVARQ
PV pol inh = inhibitors of poliovirus RNA polymerase binding and polymerization | P03300 | poliovirus polymerase elongation, fluorescence polarization; hits give low values | % elongation, % (compound at 16.7 µg/mL) | hit rate 0.66% among 150,000 | AID 588519; in the data active = % elongation below about 90%; also: some results filed as inactive read as strong as hits
Target sequence (P03300 1749-2209 limits assumed): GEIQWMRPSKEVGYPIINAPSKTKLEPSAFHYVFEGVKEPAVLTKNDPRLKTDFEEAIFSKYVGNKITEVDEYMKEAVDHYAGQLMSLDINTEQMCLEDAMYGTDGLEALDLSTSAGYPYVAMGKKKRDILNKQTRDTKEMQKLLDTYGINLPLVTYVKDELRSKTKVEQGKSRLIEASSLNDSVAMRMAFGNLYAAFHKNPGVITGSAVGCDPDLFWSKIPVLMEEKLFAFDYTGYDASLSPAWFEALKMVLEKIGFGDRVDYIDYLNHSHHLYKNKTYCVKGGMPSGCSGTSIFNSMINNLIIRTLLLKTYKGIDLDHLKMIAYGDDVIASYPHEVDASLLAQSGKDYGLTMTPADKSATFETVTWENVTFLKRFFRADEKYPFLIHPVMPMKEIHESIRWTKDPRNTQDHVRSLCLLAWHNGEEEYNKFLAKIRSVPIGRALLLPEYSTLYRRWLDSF
MenB inh = Mtb MenB enzyme inhibition. P9WNP5. MenB enzyme assay, absorbance read-out; some hits fall short of the stated cut. inhibition, %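 (about 12 µg/mL by stock and volumes)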. hit rate 0.43% among 100,000. AID 540299;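 active = mean of two replicates above 30%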;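 also: 0% = no compound and 100% = wells with inactive enzyme; the first replicate is given; strong numbers were not always called active; inactives centre near -10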
PV pol inh intensity = further read-out of PV pol inh, marked with its call; % elongation; measured here: total intensity read-out; formula for this scale not given here;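 total fluorescence in place of polarization; lower means less elongation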
* marks the source's active call; other numbers are inactive results; . = no result given; & = joins results of further samples.

SMILES	MbtI inh	PV pol inh	PV pol inh intensity	MenB inh
CC(C)NS(=O)(=O)c1ccc(NC(=O)C2CCCCC2)cc1	-7	99	102	-8
Cc1nn(-c2ccccc2)c(C)c1/C=N/NC(=O)c1ccc2c(=O)n3c(nc2c1)CCCCC3	-26	103	107	-7
C=CCNc1cnn(-c2ccccc2)c(=O)c1Cl	2	101	98	-16
COc1ccc(C)cc1S(=O)(=O)N1CCN(C)CC1	-9	101	98	-3
O=c1[nH]nnn1-c1ccccc1	-13	102	102	-2
CCCNC(=O)c1cc(-c2ccc(Cl)cc2)n[nH]1	-5	99	102	3
CCCCc1c(O)nc2cc(C)ccn2c1=O	-4	105	101	-22
O=C(N1CCC(c2ccccc2)=N1)C(F)(F)F	-5	102	102	-19
CC(C)(C)NC(=O)COc1ccc2c(c1)OCO2	-7	101	101	-20
Cc1c(N=Cc2cc(Br)cc(Br)c2O)cccc1C(=O)O	-13	88*	92*	-56
CC(C)(C)NCC(O)c1cc(Cl)c(N)c(Cl)c1 (configuration not stated)	-13	100	102	-6
O/N=C/c1ccc(Br)cc1	-7	100	101	-11
CSc1nccc(-c2c(-c3ccc(Cl)cc3)noc2C)n1	-5	107	101	-15
CN(C)c1ccc(NC(=S)c2ccccn2)cc1	68*	103	104	-61
CC1CC2=C(CC1(CO)CO)C(C)(C)CCC2 (configuration not stated)	.	104	102	-21
O=C(CCn1cnc2onc(-c3ccc(F)cc3)c2c1=O)N1CCCCCC1	9	103	102	-16
N#Cc1c(N)nc2c3c1NC(O)(c1ccccc1)C(C#N)C3c1cc(Br)ccc1O2 (configuration not stated)	-11	105	116	-10
O=C(c1cnccn1)N(c1ccccc1)C1(C(=O)NC2CCCCC2)CCCCC1	-10	101	103	-25
CCN(CC)C(=O)Cn1c(=O)cc(C)c2c(C)nn(-c3cccc(F)c3)c21	-8	102	104	-10
Cc1ccc2[nH]cc(CCNC(=O)CN3CCCn4nc(C)cc43)c2c1	3	98	102	-2
COc1ccc2c(c1)c1ncn(CCN3CCN(Cc4ccccc4)CC3)c(=O)c1n2C	24	102	97	4
CC(C)(C)OC(=O)N1CCCN(S(=O)(=O)c2ccc3c(c2)CCO3)CC1	5	104	105	-5
Cc1cc(C(=O)COC(=O)/C=C/c2cccs2)c(C)n1C1CC1	-25	99	102	-12
CC(=O)N1C(=O)CC(C)N(C(C)=O)c2ccccc21 (configuration not stated)	.	104	110	-15
O=S(=O)(c1ccc(F)cc1)n1cccc1	7	100	103	-1
O=C(Nc1cc2c3c(c1)CC(=O)N3CCC2)c1ccccc1	-7	102	108	-8
CCc1c(C)sc(NC(=O)CN2CCN(c3ncccn3)CC2)c1C(=O)OC	24	102	104	-9
CCN(CC)P1(=O)COc2ccccc2OC1	.	108	105	-16
N#Cc1ccsc1NC(=O)CC1(CC(=O)O)CCCC1	3	102	104	-18
O=C(NCCSc1ccccc1)c1cc(-n2cnnc2)ccc1Cl	3	101	99	-11
O=C(COc1ccccc1)NCC(=O)NC1CCCCC1	-2	102	106	1
Cc1cc(/C=C2/C(=N)N3C(=NC2=O)SN=C3S(=O)(=O)CC(C)C)c(C)n1-c1ccc(F)cc1	-13	103	101	-11
COC[C@H]([C@@H](O)[C@@H](O)C(=O)NCC[C@@H](C)c1nc(/C=C/C[C@H]2OC3(C[C@H](O)[C@H]2C)OC([C@@H](C[C@@H](O)[C@@H](C)[C@@H](O)[C@@H](C)/C=C(C)/C(C)=C/C=C/C(C)=C\C#N)OC)[C@@H](OP(=O)(O)O)C3(C)C)co1)N(C)C (some centres not stated)	-6	102&99	100&99	-14
Cn1c(CN2C(=O)CSc3ccc(C(F)(F)F)cc32)nnc1SCc1ccccc1	2	104	106	-17
CCOC(=O)c1cc(C)nc(Sc2ccccn2)c1C#N	-158	105	104	-7
Cc1nn(Cc2ccccc2)c(Cl)c1C(=O)OCc1nc2ccc(Cl)cc2n1CCO	-7	100	101	-26

14 compounds already listed, sorted by SMILES length, lowest first:
SMILES	MbtI inh	PV pol inh	PV pol inh intensity	MenB inh
CCN(CC)P1(=O)COc2ccccc2OC1	.	108	105	-16
O=S(=O)(c1ccc(F)cc1)n1cccc1	7	100	103	-1
O=C(COc1ccccc1)NCC(=O)NC1CCCCC1	-2	102	106	1
N#Cc1ccsc1NC(=O)CC1(CC(=O)O)CCCC1	3	102	104	-18
CC(=O)N1C(=O)CC(C)N(C(C)=O)c2ccccc21 (configuration not stated)	.	104	110	-15
O=C(NCCSc1ccccc1)c1cc(-n2cnnc2)ccc1Cl	3	101	99	-11
O=C(Nc1cc2c3c(c1)CC(=O)N3CCC2)c1ccccc1	-7	102	108	-8
Cc1cc(C(=O)COC(=O)/C=C/c2cccs2)c(C)n1C1CC1	-25	99	102	-12
Cc1ccc2[nH]cc(CCNC(=O)CN3CCCn4nc(C)cc43)c2c1	3	98	102	-2
CCc1c(C)sc(NC(=O)CN2CCN(c3ncccn3)CC2)c1C(=O)OC	24	102	104	-9
Cn1c(CN2C(=O)CSc3ccc(C(F)(F)F)cc32)nnc1SCc1ccccc1	2	104	106	-17
Cc1nn(Cc2ccccc2)c(Cl)c1C(=O)OCc1nc2ccc(Cl)cc2n1CCO	-7	100	101	-26
COc1ccc2c(c1)c1ncn(CCN3CCN(Cc4ccccc4)CC3)c(=O)c1n2C	24	102	97	4
Cc1cc(/C=C2/C(=N)N3C(=NC2=O)SN=C3S(=O)(=O)CC(C)C)c(C)n1-c1ccc(F)cc1	-13	103	101	-11

Next section
SMILES	MbtI inh	PV pol inh	PV pol inh intensity	MenB inh
Cc1cc(=O)oc2cc(OC(=O)CSC(=N)N)ccc12	.	92	85	-8
COc1c2occc2cc2ccc(=O)oc12	10&-4	101&102	100&100	1&-18
CC(C)NC(=O)c1cccc(Cl)c1	.	104	113	-16
O=c1[nH]cc(N=Cc2ccncc2)c(=O)[nH]1	11	101	100	-5
CC(N)C(O)c1ccc(O)c(O)c1 (configuration not stated)	4	100	100	4
Brc1ccc(-c2nnc3sc(CNCc4ccc5c(c4)OCO5)cn23)cc1	2	105	100	-20
Cc1oc2ccc(O)c(CN(C)Cc3ccccc3)c2c1C(=O)NCc1ccccc1	-1	103	104	-7
O=c1cc(-c2ccccc2)[nH][nH]1	-10&-8	102	107	.
CCc1ccc(C(=O)c2c(S(=O)(=O)CC)c(S(=O)(=O)CC)c3cc(C(C)(C)C)ccn23)cc1	.	103	107	-22
Cn1ncc(SCC(=O)O)c(Cl)c1=O	5	100	103	-8
COc1cc2nc(SCC(=O)NC3CC3)n(CCC3=CCCCC3)c(=O)c2cc1OC	-4	101	97	-20
N#CC1(C(=O)O)CCCC1	-13	106	102	-5
O=S(=O)(c1ccccc1)N1CCN(C(c2ccccc2)c2ccccc2)CC1	.	108	111	-26
COc1cc(CN2CCC(Cc3ccccc3)CC2)cc(OC)c1O	0	100	102	-27
COc1ccc(N2CCN(C(=O)N3c4ccccc4Sc4ccccc43)CC2)cc1	-1	105	102	-8
COCC(=O)N(Cc1cc2cc3c(cc2nc1Cl)OCO3)CC1CCCO1 (configuration not stated)	23	102	103	-16
Cc1ccc(OC(=O)C23CC4CC(CC(C4)C2)C3)cn1	15	101	100	42*
CCOc1ccccc1C(=O)NCC(=O)N1CCC(C)CC1	-8	106	111	-12
Cc1cc(NC(=O)NCC(O)c2ccccc2)c(C(F)(F)F)o1 (configuration not stated)	-1	101	106	3
Cc1ccc(NC(=O)/C(C#N)=N/Nc2ccc(C(=O)O)cc2)c(C)c1	1	101	101	-171
Cc1cc(N2CCCC2c2nc3ccccc3s2)n2ncnc2n1 (configuration not stated)	-3	104	107	-12
O=C(Oc1ccc(-c2nnco2)cc1)C1CCN(S(=O)(=O)c2ccccc2C(F)(F)F)CC1	-2	96	98	2
O=C(O)COc1cc(C(F)(F)F)cc(C(F)(F)F)c1	2	96	101	-21
CCOC(=O)CSc1nc2ccc(OCC)cc2[nH]1	23	101	101	-1
CCOC(=O)c1cc2occc2n1C(C)C(=O)OCC (configuration not stated)	23	105	116	-65
CCC1(C)Cc2c(C#N)c(N)sc(=S)c2CO1 (configuration not stated)	19	98	102	-29
COc1ccc2c(C)cc(=S)[nH]c2c1	85	103	107	-30
O=C1CC(C(=O)Nc2ccccc2)C2(CCCC2)O1 (configuration not stated)	3	103	103	16
NC(=O)CSCC(=O)Nc1ccccc1F	-20	100	103	5
C#C[C@]1(O)CC[C@H]2[C@@H]3CCC4=Cc5oncc5C[C@]4(C)[C@H]3CC[C@@]21C	-1	101	102	7
NC(=O)C1CCN(C2=NS(=O)(=O)c3ccccc32)CC1	-1	102	104	-4
COc1cc(C(=O)N2CCn3c(C)ccc3C2C)cc(OC)c1OC (configuration not stated)	4	102	120	-6
CN1CC(C#N)C2(O)c3ccccc3CCC2C1 (configuration not stated)	-4	101	101	21
CC(C)(C)C(=O)OCOC(=O)[C@@H]1N2C(=O)[C@@H](NC(=O)[C@H](N)c3ccccc3)[C@H]2SC1(C)C	-16	99	101	4
COc1ccc(C2=CC(c3ccccc3)SC(N)=N2)cc1 (configuration not stated)	.	104	113	-20
CC(NS(=O)(=O)c1ccccc1C#N)C1CC2CCC1C2 (configuration not stated)	22	106	127	-14
COc1cc(-c2[nH]c(=S)nc(N)c2C#N)ccc1O	.	105	127	-8
CC1CCN(C(=O)c2ccc3c(c2)NC(=O)CN3)CC1	118	101	103	2
CCN(C(=O)C1c2ccccc2Oc2ccccc21)c1ccccc1	-5	102	104	-16
O=C(Nc1sc2c(c1C(=O)c1ccccc1)CCCC2)c1ccco1	-13	104	102	-23
CCOC(=O)C1CCN(C(=O)CN2CCN(c3ccccc3O)CC2)CC1	-8	101	101	-26
Cc1ccc(CN2CCC(CNC(=O)Nc3ccccc3)CC2)cc1	-6	102	103	-14
COCCNS(=O)(=O)c1ccc2oc(=O)c3ncn(C)c3c2c1	-35	101	97	-17
O=C(N1CCN(CCO)CC1)N1c2ccccc2C=Cc2ccccc21	2	102	101	-19
COc1ccccc1C1C2=C(CCCC2=O)N(CC(=O)O)C2=C1C(=O)CCC2	.	101	114	-55
CCCCCCSc1n[nH]c(=O)[nH]c1=O	-8	86*	105*	-9
O=C1/C(=C/c2cc(Br)cs2)CCC/C1=C\c1cc(Br)cs1	-3	100	97	-18
COc1ccc(C(=O)NCc2cccnc2)cc1S(=O)(=O)N1CCCc2ccccc21	-1	101	99	-24
COc1ccc2c(-c3ccccc3)cc3nnnn3c2c1	0	99	100	5
O=C(Nc1ccc(-c2csc(-c3ccccc3)n2)cc1)c1cccs1	.	106	110	-68
NC(N)=NS(=O)(=O)c1ccc2[nH]c(=O)oc2c1	1	100	102	-5
O=C(Cc1coc2ccc3ccccc3c12)Nc1cc(C(F)(F)F)ccc1-n1cncn1	44	106	112	-5
CSCCn1c(-c2ccccc2)cc(C(=O)N2CCCC2)c1C	-11	100	108	-4
N#CCN(CC#N)C(=O)CSc1ccccc1	10	101	99	-32
COc1ccc(/C(O)=C/c2nc3cc(C)ccc3oc2=O)c(OC)c1	-2	67	166	-15
O=C1C(Cc2ccc(O)cc2)NC(=S)N1Cc1ccccc1 (configuration not stated)	-6	102	100	-23
CC(C)(C)C1CCC(OCC(O)CN2CCCC2)CC1 (configuration not stated)	-2	103	98	.
Cc1cc(NC(=O)C(NC(=O)c2ccc(F)cc2)C23CC4CC(CC(C4)C2)C3)no1 (configuration not stated)	-6	99	104	6
CC1=NNC(=O)C1CC(=O)N/N=C(/C)c1ccccc1 (configuration not stated)	1	101	99	-9
Cc1cc(C)nc(SCC(N)=O)n1	-11	101	103	46*

Following part.
SMILES	MbtI inh	PV pol inh	PV pol inh intensity	MenB inh
O=C(c1cnn(S(=O)(=O)c2ccccc2)c1)c1cc(Cl)ccc1O	1	101	101	-17
O=C1CCC(C(=O)O)NC(=O)N1 (configuration not stated)	-11	103	103	-40
CC(NC(=O)C1COc2ccccc2O1)c1ccccc1F (configuration not stated)	-5	100	97	-28
CCc1nn(CC(=O)NCCN2CCN(c3cccc(C)c3C)CC2)c(=O)c2cc3sccc3n12	-2	101	102	5
CC1CC(C)CN(CCC(=O)Nc2ccccc2)C1 (configuration not stated)	.	106	110	0
CC1c2nc3ccccc3n2C(CC(=O)NC2CC2)C(=O)N1Cc1ccccc1 (configuration not stated)	-3	101	102	-9
O=C(NCCSc1c(-c2ccccc2)[nH]c2ccccc12)c1ccc(N2C(=O)CCC2=O)cc1	58	100	102	2
O=C(CN1C(=O)c2ccccc2S1(=O)=O)N1CCN(c2cccc(Cl)c2)CC1	-9	100	100	4
COC(=O)CCc1c(C)c(C(=O)c2ccco2)c2ccccn12	11	100	103	-257
CC(=O)NCc1ccc(C(=O)CSc2nnc(C)n2Cc2ccccc2)o1	10	103	103	-10
Oc1ccc(C=NCC2CCCN3CCCCC23)c(O)c1 (configuration not stated)	.	107	111	-16
CCCn1c(=O)c2ccccc2n2c(SCC(=O)/C(C#N)=C(\C)N)nnc12	6	103	105	-12
Cc1nc(-c2c(C(F)(F)F)oc3cc(O)ccc3c2=O)cs1	4	103	106	-30
ONC=NCc1ccccc1OC(F)(F)F	7	100	103	34*
CCn1c(COC(=O)/C=C/c2ccc(Br)o2)nc2cc(S(=O)(=O)N(C)C)ccc21	4	108	115	-35
Cc1ccc(C(=O)N2CCC(C(=O)NC3CCCC3)CC2)cc1	.	103	96	5
Cc1ccccc1OCc1nc2ccccc2c(=O)n1N	-20	100	102	-25
CC(C)NC(=O)c1ccc(COCC(F)(F)C(F)F)o1	-2	101	101	1
CCOc1ccc(Oc2cc(C)nc(SC)n2)nn1	-7	101	102	0
Fc1ccccc1C1N(Cc2ccccc2)CCCN1Cc1ccccc1	-44	104	106	-7

High-throughput results from PubChem.
